High-throughput results deposited in PubChem BioAssay by ICCB-Longwood Screening Facility, Harvard Medical School.
LANA-nucl inh = LANA-nucleosome interaction inhibition; FITC-LANA1-23 / chicken nucleosome fluorescence polarization; hits give low values; z-score (no concentration beside the values); 51,000 tested, 0.3% active;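 active means both repeat wells score below -2 in polarization z-score versus plate sample wells, excluding overly bright wells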;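 further: 100 nL library stock added to about 30 µL; numbers are from one replicate; some results filed as inactive read as strong as hits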
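Test system: purified chicken nucleosomes with FITC-labelled LANA N-terminal peptide (1-23); Input: 240 nM purified chicken nucleosomes (480 nM peptide binding sites), final; Medium: TEN-BT buffer, pH 7.5; Timing: 10–45 min, room temperature; Technique: fluorescence polarization, 480 nm excitation, 535 nm parallel and perpendicular emission; Replication: duplicates.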
BasE inh = inhibitors of Acinetobacter baumannii siderophore enzyme BasE. purified BasE, fluorescence polarization binding displacement. inhibition, % (concentration not given with the values). 84,000 tested, 0.1% active;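 active means both replicates above 25% with normal brightness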;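 further: 0% = negative plate control signal and 100% = positive plate control signal; stock transfer was 100 nL into about 30 µL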
Active calls of the source: *; x = not tested or not shown; & = joins results of further samples.

Screens in order: LANA-nucl inh	BasE inh
#1 CC(Oc1ccc(Cl)cc1Cl)C(=O)NNc1nc(Cl)nc(N(C)C)n1 (stereo not given)
  -0.546	1.5
#2 CCOc1cc2c(cc1/C=C1/NC(=O)N(Cc3ccccc3)C1=O)OCO2
  x	-2.4
#3 Clc1ccc(C2=NNC(=NCc3ccc4c(c3)OCO4)SC2)cc1
  x	-1.5
#4 CC(Sc1nncn1-c1ccccc1)C(=O)Nc1ccccc1 (stereo not given)
  x	-0.1
#5 C=CCc1c(C)[nH]c2c(OC)cccc2c1=S
  0.653	-0.2
#6 Cc1ccc(C(=O)/C=C/Nc2ccc(F)c(Cl)c2)o1
  0.341	-1.5
#7 CCN1C(=O)/C(=C2\SC(N3CCCCC3)=NC2=O)c2ccccc21
  0.131	-1.2
#8 CCOC(=O)c1cc(NC(=O)Nc2cc(C)ccc2C)c(C)nc1C
  -0.0485	0.4
#9 CN(C(=O)CSc1nnnn1C)C1CCCCC1
  x	1.6
#10 c1ccc2sc(-c3ccc(CNCCCn4ccnc4)o3)nc2c1
  x	-9.2
#11 CS(=O)(=O)N1CCCC(C(=O)NCc2cccnc2)C1 (stereo not given)
  -0.948	1.6
#12 COCCn1c(=NC(=O)c2ccccc2)sc2cc(OC)ccc21
  -0.126	-0.2
#13 CCc1ccccc1Nc1nc(N)nc(CO/C(=C(\C#N)c2nnc3n2CCCCC3)C(F)(F)F)n1
  x	0.8
#14 CCN(CC)S(=O)(=O)c1c(C)nn(S(=O)(=O)c2ccccc2)c1C
  1.21	0.5
#15 CC(OC(=O)COc1cccc(C(F)(F)F)c1)C(N)=O (stereo not given)
  x	-0.2
#16 CC(C)Cn1c(=O)c2ccccc2n2c(CCC(=O)NCCCN3CCN(c4ccccc4F)CC3)nnc12
  0.807	0.0
#17 CCOc1cnc(C(=O)NN=C(N)N)o1
  0.258	1.2
#18 CSC(=C(C#N)C#N)N1CCN(c2ccccc2)CC1
  x	1.8
#19 CC1=NN(c2ccccc2)C(=O)/C1=C\c1cn(CCC(=O)O)nc1-c1cc2ccccc2o1
  x	-0.8
#20 CCN(C(=O)CSc1nnc2scc(-c3cccc(OC)c3)n12)c1ccccc1
  0.198	-1.7
#21 N#CCCn1nnc(CCN2C(=O)c3ccccc3C2=O)n1
  x	0.0
#22 COCc1[nH]nc(N)c1-c1ccccc1
  -0.327	-0.8
#23 CC(C)(C)c1cn2cccc(OCc3ccc(Cl)c(Cl)c3)c2n1
  x	1.4
#24 O=C(O)C(O)C(O)c1nc2ccccc2s1 (stereo not given)
  x	-0.9
#25 CCn1c(CNc2ccc(C)cc2)nnc1SCc1ccccc1
  -0.875	0.3
#26 O=C(C1Cc2ccccc2CN1S(=O)(=O)c1ccc2c(c1)OCCO2)N1CCCC1 (stereo not given)
  x	0.6
#27 Cc1cccc(NC(=O)Nc2cccc(C)c2)c1
  x	0.8
#28 CCOC(=O)c1cnc(C(F)(F)F)nc1NNC(=O)c1ccccc1
  -0.646	3.3
#29 NC(=O)c1ccc(-c2ccccc2)cc1C(N)=O
  0.146	1.2
#30 COc1ccc2c(C)nc(N/C(N)=N/S(=O)(=O)c3ccc(C)cc3)nc2c1
  x	-3.0
#31 Cc1cc(NNC(=O)c2ccc(Cl)cc2)nc2c1c(C)nn2C
  0.28	-0.5
#32 CCc1ccccc1NC(=O)NCc1ccccc1OC
  -1.08	0.4
#33 CN1C[C@H](C(=O)N[C@]2(C)O[C@@]3(O)[C@@H]4CCCN4C(=O)[C@H](Cc4ccccc4)N3C2=O)CC2c3cccc4[nH]cc(c34)C[C@H]21 (stereo not given in full)
  0.396	x
#34 COc1ccc(CC(C)Nc2ccc3c(c2)OCO3)cc1 (stereo not given)
  0.591	-1.2
#35 Oc1ccc(CNC2CCN(Cc3ccccc3)C2)cc1 (stereo not given)
  x	1.2
#36 CC(C(=O)Nc1ccc(Br)c(Cl)c1)N1C(=O)C2C3C=CC(C3)C2C1=O (stereo not given)
  0.479	1.4
#37 Cn1ccnc1SCC(O)c1ccccc1 (stereo not given)
  0.286	0.2
#38 c1ccc(C2CC(c3ccccc3)n3ncnc3N2)cc1 (stereo not given)
  x	1.1
#39 N#CC1(NC(=O)COC(=O)c2ccc3c(c2)CCCC3)CCCCC1
  x	0.2
#40 O=C(Nc1nc2ccccc2n1CCN1CCOCC1)C1CCCCC1
  x	0.8
#41 CC1CCc2c(sc3ncnc(SCC#N)c23)C1 (stereo not given)
  x	1.6
#42 O/N=C/c1cn(-c2ccccc2)nc1-c1ccccc1
  -0.99	1.3
#43 CCc1ccc(NC(=O)C(CC)CC)cc1
  0.146	-2.9
#44 CC(=O)NC1C(=O)SC1(C)C (stereo not given)
  x	2.7
#45 CNCC(=O)Nc1cccc2ccccc12
  x	-3.0
#46 Cc1ccc(C(=O)NCc2ccccc2F)s1
  x	0.7
#47 O=C(NC1CCCCC1)c1cccnc1Nc1ccccc1F
  -0.989	1.6
#48 CCC1(CC)Cc2ccccc2-c2nc3[nH][nH]c(=S)n3c(=O)c21
  x	1.2
#49 O=C(Cn1c(C(F)(F)F)nc2ccccc21)Nc1ccc(S(=O)(=O)NCc2ccco2)cc1
  x	-1.6
#50 Cn1c(NCc2c(O)ccc3ccccc23)nc2ccccc21
  -0.272	-0.6
#51 Cc1ccc(NC(=O)c2ccc(C#N)cc2)cc1
  -0.232	2.1
#52 COc1ccc(N(C(=O)c2ccco2)S(=O)(=O)c2ccccc2)cc1
  -0.834	0.8
#53 CCC(=O)N1CCN(c2nc(-c3ccccc3)c3c(c2C#N)CCCC3)CC1
  -0.154	5.1
#54 COc1ccc(Br)cc1CNC(=O)c1cc2oc3ccccc3c2n1C
  -0.309	1.7
#55 CCN(CC)C(=S)Nc1ccc(Cl)c(Cl)c1
  0.259	-3.2
#56 CC(=O)N1CCC2(CC1)CC(=O)c1cc(OCC(=O)NCc3ccco3)ccc1O2
  -0.075	1.2
#57 O=c1c2ccccc2nc(SCc2nnc(-c3ccccc3)o2)n1CCc1ccccc1
  0.4	3.1
#58 O=C(Nc1ccccc1C(=O)NCCCN1CCOCC1)c1ccco1
  -0.418	-0.7
#59 Cc1noc(C)c1C(=O)O
  0.532	1.0
#60 O=c1cc(CSc2ccc(Cl)cc2)nc(N2CCCCC2)[nH]1
  2.53	-2.5

Overlap with the part before: six entries, then new ones.
Screens in order: LANA-nucl inh	BasE inh
#55 CCN(CC)C(=S)Nc1ccc(Cl)c(Cl)c1
  0.259	-3.2
#56 CC(=O)N1CCC2(CC1)CC(=O)c1cc(OCC(=O)NCc3ccco3)ccc1O2
  -0.075	1.2
#57 O=c1c2ccccc2nc(SCc2nnc(-c3ccccc3)o2)n1CCc1ccccc1
  0.4	3.1
#58 O=C(Nc1ccccc1C(=O)NCCCN1CCOCC1)c1ccco1
  -0.418	-0.7
#59 Cc1noc(C)c1C(=O)O
  0.532	1.0
#60 O=c1cc(CSc2ccc(Cl)cc2)nc(N2CCCCC2)[nH]1
  2.53	-2.5
#61 O=C1OC2(CCCC2)OC(=O)C1=Cc1ccc(Br)cc1
  x	6.7
#62 Cn1c(=O)c2c(ncn2CCC(=O)NC2CCCCCCC2)n(C)c1=O
  0.301	0.8
#63 N#Cc1c(/N=C/c2c(F)cccc2Cl)oc(-c2ccco2)c1-c1ccco1
  x	-0.7
#64 CC(C)C(=O)Nc1cccc(C(=O)Nc2nncs2)c1
  0.172	1.3
#65 CCNC(=O)CC1C(=O)N(c2ccccc2)C(=O)N1CCC(C)C (stereo not given)
  -0.282	1.4
#66 COc1cc2nc(COc3ccccc3)oc(=O)c2cc1OC
  x	3.5
#67 CCCOC(=O)c1cc(=O)[nH]c2ccccc12
  0.048	-0.3&2.2
#68 O=C(Nc1ccccc1)O/N=C1\CCc2ccccc21
  0.481	1.6
#69 Cc1ccc(C)n1CC1CCNCC1
  -0.539	x
#70 Cc1noc(C)c1NC(=O)Nc1cccc(-n2cccc2)c1
  0.335	-1.9
#71 COc1ccc(C2=NCC(CSc3nc4cc(Cl)ccc4o3)S2)cc1 (stereo not given)
  x	-0.8
#72 COC(=O)C1=C(C)N(c2ccccc2)/C(=C/c2cccs2)C1=O
  x	1.4
#73 CCCN1C(=O)c2ccccc2NC1c1cccc(O)c1O (stereo not given)
  x	1.1
#74 COc1ccc(/C=C/C(=O)NNc2nc(C)cc(=O)[nH]2)cc1
  x	0.8
#75 O=C(Nc1ccccc1C(=O)N1CCN(c2ccc(F)cc2)CC1)C1=CSCCO1
  -1.08	-0.7
#76 c1ccc2c(CN3CCSCC3)c[nH]c2c1
  1.21	-4.7
#77 O=C(O)c1cccnc1SC1CC(=O)N(Cc2ccccc2)C1=O (stereo not given)
  x	0.2
#78 Cc1cc(NC(C)c2ccccc2)cc(=O)n1Cc1ccco1 (stereo not given)
  0.218	-1.5
#79 CCc1nc(C)cn1S(=O)(=O)c1ccc2c(c1)OCCO2
  -1.01	-0.9
#80 COC(=O)C1=C(C)N(c2ccc(OC)cc2)C(C)=C(C(=O)OC)C1c1ccccc1
  x	0.1
#81 Cc1ccc2[nH]cc(CCNC(=O)c3ccccc3)c2c1
  x	0.5
#82 CCCC(=O)Nc1ccc(-c2nc3cc(C(C)C)ccc3o2)cc1
  x	1.5
#83 CNC(=O)C(C)n1ccc2cc(S(=O)(=O)N3CCCC3)ccc21 (stereo not given)
  x	0.1
#84 CC(=O)N(Cc1c(C#N)c2ccccc2n1C)c1ccccc1
  0.242	-4.4
#85 CCSC1=NCCN1C(=O)c1ccc(S(=O)(=O)N(C)C)cc1
  -1.01	-0.6
#86 C=CCN(CC=C)Cn1nc(-c2c[nH]c3ccccc23)oc1=S
  x	5.4
#87 O=C(Cn1c(-c2cscn2)nc2ccccc21)OCCOc1ccc(Br)cc1
  x	0.4
#88 CN(C)S(=O)(=O)c1ccc(C(=O)N=c2sc3cc(S(C)(=O)=O)ccc3n2C)cc1
  x	1.5
#89 O=C(CC(c1ccc(F)cc1)N1Cc2ccccc2C1=O)NCc1ccco1 (stereo not given)
  -0.214	0.5
#90 O=C(O)CCSc1nc2ccccc2[nH]1
  -1.58	-0.6

Some of the entries above, set out differently:
[17] CCOc1cnc(C(=O)NN=C(N)N)o1
- LANA-nucl inh: 0.258
- BasE inh: 1.2

[53] CCC(=O)N1CCN(c2nc(-c3ccccc3)c3c(c2C#N)CCCC3)CC1
- LANA-nucl inh: -0.154
- BasE inh: 5.1

(cont.)
Screens in order: LANA-nucl inh	BasE inh
#91 O=C(CSc1nccc(=O)[nH]1)NN(c1ccccc1)c1ccccc1
  x	1.5
#92 Cc1ccc(Oc2ccc3c(c2)C(=O)N(CC2CCCO2)C3=O)cc1 (stereo not given)
  -0.546	0.3
#93 Cc1ccccc1C(C(=O)Nc1ccc(F)cc1)N(Cc1ccco1)C(=O)Cn1nnc2ccccc21 (stereo not given)
  -0.952	0.9
#94 Nc1cc(N2CCCCC2)nc(N)[n+]1OS(=O)(=O)[O-]
  -0.506	0.7
#95 O=C(Oc1c(-c2ccco2)oc2ccccc2c1=O)c1cccs1
  -0.211	-0.4
#96 N#CCOC(=O)c1ccccc1C(=O)c1cccs1
  x	1.0
#97 CC[N+]1(CC)Cc2cc3ccccc3cc2C1
  x	2.1
#98 CCC(=O)Nc1c2c(nn1-c1ccc(C)cc1C)CSC2
  -0.54	-0.7
#99 O=c1ccc(-c2ccc(S(=O)(=O)Nc3ccccc3)o2)n[nH]1
  x	0.7
#100 CC1(C)CC(=O)C2=C(C1)N(CC(=O)O)C1=C(C(=O)CC(C)(C)C1)C2c1ccccc1
  0.147	0.6
#101 COc1cccc(NC(=O)Cc2noc3ccc(C)cc23)c1
  0.262	-0.3
#102 Cc1c(Cl)cccc1NC(=O)NCC(C)C
  -0.831	-0.7
#103 O=c1c2c3c(sc2n2cnnc2n1CCc1ccccc1)CCCC3
  0.276	-0.5
#104 CC(OC(=O)C1CCN(C(=O)Nc2ccccc2)CC1)C(=O)Nc1ncc(Cl)cc1Cl (stereo not given)
  x	0.7
#105 CN(C)/C=C/C=C1\CCCC1=O
  0.413	7.0
#106 CN(C)c1ccc(C(CNC(=O)NC2CCCCC2)N2CCc3ccccc32)cc1 (stereo not given)
  0.316	-2.2
#107 COc1cc(CN2CC(C)CC(C)C2)cc(I)c1O (stereo not given)
  3.17	-1.7
#108 NS(=O)(=O)c1ccc(CC(=O)O)cc1
  0.15	-0.1
#109 COc1cc(OC)cc(C(=O)N[C@H](C(=O)NCc2ccco2)C(C)C)c1
  x	0.9
#110 O=C1/C(=C/c2cccc(Br)c2)SC(=S)N1CC(=O)N1CCCc2ccccc21
  x	3.1
#111 O=S(=O)(c1cccc2nsnc12)N1CCOCC1
  0.112	0.2
#112 O=C(CNCCO)N1N=C(c2cccs2)CC1c1cccs1 (stereo not given)
  0.241	1.5
#113 CN(C)C(=O)c1cccn1-c1ncc(C(F)(F)F)cc1Cl
  2.3	x
#114 CCc1ccc(NC(=O)N(Cc2ccco2)C2CCN(C(C)=O)CC2)cc1
  -0.551	1.9
#115 CN(C)CC(C)(C)CNc1ccc(S(=O)(=O)N2CCCC2)cn1
  x	-1.9
#116 O=C(NC(=S)NNc1ncccc1-n1cccc1)c1ccccc1
  -1.23	2.0
#117 CCc1cccc2cc(CN)c(=O)[nH]c12
  1	-3.4
#118 Cc1ccc(N(CC#N)C(=O)Nc2ccc(Cl)cc2)cc1
  x	-1.9
#119 O=C(NC(=S)NNc1nc2ccccc2s1)c1ccco1
  x	3.4

Some of the compounds tested (hit frequency here may not be typical).
